Compound activity deposited in PubChem BioAssay by several laboratories.
MT1-MMP promoter: MT1-MMP gene expression reporter suppression – cell-based, luciferase reporter, luminescence (AID 618); MT1-MMP promoter luciferase reporter cells, luminescence; calls from a first round at 10 µM; hits with a dose series show EC50 in µM; 87,000 compounds, 0.62% hits;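 active means over half of the reporter light lost at 10 µM or EC50 under 50 µM; inactive means the rest and hits that failed the dose series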;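 further: actives suppress MT1-MMP promoter-driven transcription so potencies describe inhibitors; HT1080 fibrosarcoma cells; overnight exposure; toxic or luciferase-blocking compounds were not removed from the actives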
Hsc70: small molecules displacing fluorescent ligand from Hsc70 – biochemical, fluorescence polarization, primary screen (AID 568) | Hsc70 fluorescence polarization, probe displacement; higher % means a stronger effect; strong numbers were not always called active | displacement, % at 20 µM, or IC50 in µM where a hit was titrated | 83,000 tested, under 10 active;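 active means displacement above 50% without optical interference and an IC50 on retest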;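 further: ATPase domain with a fluorescein-tagged ATP probe; 0% = vehicle and 100% = excess ADP; read after one hour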
WNV NS2B-NS3 inh: WNV NS2B-NS3 proteinase inhibition; P06935; WNV NS2B-NS3 protease, fluorogenic substrate Ex360/Em465; hits give low values; z-score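 (tested at a level between 10 and 100 µM)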; 65,000 compounds, 0.18% hits; AID 577;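 active means z-score at -3 or under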;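 further: score is relative to mean and spread of the compound wells of a plate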
Target sequence (P06935 1371-1501 limits assumed): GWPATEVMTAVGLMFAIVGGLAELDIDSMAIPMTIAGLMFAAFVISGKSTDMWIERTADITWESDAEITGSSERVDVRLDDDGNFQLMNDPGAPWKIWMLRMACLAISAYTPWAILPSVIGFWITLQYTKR
Target sequence (P06935 1502-1679 limits assumed): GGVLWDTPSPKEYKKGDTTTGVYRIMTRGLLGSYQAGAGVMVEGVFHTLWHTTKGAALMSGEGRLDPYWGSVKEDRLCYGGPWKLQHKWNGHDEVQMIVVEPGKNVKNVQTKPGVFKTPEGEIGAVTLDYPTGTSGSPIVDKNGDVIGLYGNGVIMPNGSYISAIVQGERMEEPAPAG
* = called active by the depositor; i = inactive; . = no result given; + = active, no number.

Below each SMILES: MT1-MMP promoter, Hsc70, WNV NS2B-NS3 inh
- COCC(=O)N(C)c1nnc(-c2ccccn2)s1
    i, -0.3%, -0.03
- O=C(Cn1nc(C(F)(F)F)c2c1CCC2)Nc1ccccc1C(F)(F)F
    i, 2.3%, .
- Cc1c(C=O)cnn1CCC(=O)O
    i, -0.6%, .
- CCN(CC)C(=O)CSc1nc2ccccc2c(=O)n1-c1ccccc1OC
    i, 6.0%, 0.43
- COCCN(C(=O)c1ccco1)c1nnc(-c2ccc(OC)c(OC)c2)s1
    i, -0.4%, .
- CCc1c(O)nc(SC2CC(=O)N(c3ccccc3)C2=O)[nH]c1=O (stereo not given)
    i, -1.6%, .
- CCc1ccc(N2CC(C(=O)NCc3ccco3)CC2=O)cc1 (stereo not given)
    i, -2.3%, .
- Cn1c(=O)c(=O)n(C)c2cc(S(=O)(=O)Nc3ccc(OC(F)(F)F)cc3)ccc21
    i, 5.3%, .
- Cc1ccc2nc(NC(=O)CSc3nc4ccccc4o3)sc2c1
    i, -1.9%, .
- Cc1noc(NS(=O)(=O)c2ccc(N/C=C/C(=O)c3ccc4c(c3)OCO4)cc2)c1C
    i, -6.7%, -1.6
- COc1ccccc1NC(=O)Cc1cccs1
    i, -4.7%, 1
- CCN(c1ccc(NC(=O)CSc2nnc3nc(C)cc(C)n23)cc1)C(C)C
    i, -0.7%, .
- Nc1nc(-c2cccnc2)nn1C(=O)COc1ccccc1
    i, -4.8%, 0.25
- CC(C)(C)n1nc2c(c1NC(=O)c1cccs1)CS(=O)C2 (stereo not given)
    i, 2.8%, -1.1
- CC(Sc1nnc(Cc2cccs2)n1C1CCCCC1)C(=O)NCc1ccco1 (stereo not given)
    i, -1.2%, .
- CCCC(OC(=O)CN1C(=O)COc2ccccc21)C(=O)NC1CCCC1 (stereo not given)
    i, 1.7%, 0.19
- COc1cc(S(=O)(=O)N(C)C)ccc1F
    i, 4.9%, -0.31
- CC(=O)c1ccc(N2CCN(C(=O)c3ccc(OCc4c(C)noc4C)cc3)CC2)cc1
    i, 2.6%, 1.1
- O=C(CS(=O)(=O)Cc1ccccc1)Nc1ncccn1
    i, 1.8%, -0.9
- CSCCNC(=O)c1ccc(C(C)(C)C)cc1
    i, 0.8%, 0.33
- O=C(O)CCC(=O)Nc1ccccc1C(=O)NC1CCCCC1
    i, 0.7%, 0.79
- O=C(c1ccccc1)n1ccc(-c2cnc(-c3ccccc3)s2)n1
    i, 5.0%, .
- CCOC(=O)/N=C(/NC(=O)Nc1ccc(C(=O)OCC)cc1)OC
    i, -7.0%, -0.23
- COc1ccc2c(c1)c1ncn(CCN3CCCCC3)c(=O)c1n2C
    i, -4.6%, .
- Cc1cc(N2CCC(C)CC2)n2ncc(-c3ccccc3)c2n1
    i, 0.9%, -0.58
- COc1ccc(N2CCC(CNC(=O)Nc3cccc(OC)c3)C2)cc1 (stereo not given)
    i, 3.5%, .
- Cc1n[nH]c(=O)nc1NCC1CCCO1 (stereo not given)
    i, 1.5%, 0.75
- COC(=O)c1c(C)[nH]c(C(=O)C(C)Sc2nnc(-c3cc(OC)c(OC)c(OC)c3)o2)c1C (stereo not given)
    i, -5.3%, 0.39
- O=C(CNC(=O)Cn1ccc2ccccc2c1=O)NCCCN1CCN(c2cccc(Cl)c2)CC1
    i, -3.5%, .
- CCOC(=O)c1sc(=S)n(-c2cccc(OC)c2)c1N
    i, -0.7%, -0.84

Compound profiles, as listed above. Screens in order: MT1-MMP promoter | Hsc70 | WNV NS2B-NS3 inh
CCOC(=O)/N=C(/NC(=O)Nc1ccc(C(=O)OCC)cc1)OC is entered as i | -7.0% | -0.23
CC(=O)c1ccc(N2CCN(C(=O)c3ccc(OCc4c(C)noc4C)cc3)CC2)cc1 is entered as i | 2.6% | 1.1
CCN(c1ccc(NC(=O)CSc2nnc3nc(C)cc(C)n23)cc1)C(C)C is entered as i | -0.7% | .
O=C(O)CCC(=O)Nc1ccccc1C(=O)NC1CCCCC1 is entered as i | 0.7% | 0.79
CCOC(=O)c1sc(=S)n(-c2cccc(OC)c2)c1N is entered as i | -0.7% | -0.84

Following part
Below each SMILES: MT1-MMP promoter, Hsc70, WNV NS2B-NS3 inh
- CC1CC(C)CN(Cc2nc(N)nc(Nc3ccccc3)n2)C1 (stereo not given)
    i, -2.7%, .
- O=C(NCCN=C1NS(=O)(=O)c2ccccc21)c1ccncc1
    i, 0.2%, .
- CCCC(=O)Nc1ccc2c(c1)nc(CCNC(=O)c1ccccc1)n2C
    i, -3.2%, .
- CCCCNCCCOc1cccc(Cl)c1Cl
    i, -7.1%, .
- O=C1OCCC1Sc1nc2cc(Cl)ccc2s1 (stereo not given)
    i, -1.7%, 0.99
- CCc1c(C)n([O-])c2c([n+]1=O)CCCCC2
    i, -2.7%, 1
- Cc1ccc(SCCC(=O)NCC2CCCO2)cc1 (stereo not given)
    i, 1.4%, 1.2
- CN1C(=O)N(C)C2C1N(CN1CCCCC1)C(=O)N2CN1CCCCC1 (stereo not given)
    i, -2.6%, -0.65
- Cc1c(C(N)=O)c(N)c(C(=O)c2ccccc2)n1-c1ccccc1
    i, 3.8%, -1
- CC1(c2cccs2)CC(c2cccs2)=C(C#N)C(=O)N1 (stereo not given)
    i, 2.2%, 0.23
- CCN(CC)S(=O)(=O)c1ccc(NC2c3ncccc3C(=O)N2Cc2ccccc2)cc1 (stereo not given)
    i, 7.0%, 0.36
- O=C(CN1CCC(NC(=O)c2cccc(F)c2)CC1)NCc1ccccc1F
    i, 2.9%, 0.06
- COc1ccc(C2C(C(=O)Nc3ccccc3OC)=C(C)Nc3nnnn32)c(OC)c1 (stereo not given)
    i, -4.0%, -0.08
- Cc1ccc(-c2noc(-c3ccccc3C(=O)N3CCOCC3)n2)cc1
    i, 6.0%, .
- O=C1CC(c2ccccc2)Sc2ccccc2N1 (stereo not given)
    i, 0.6%, 1.2
- CCOc1cccc(NC(=O)c2ccc(S(=O)(=O)N(C)C)cc2)c1
    i, -0.3%, -0.44
- COc1ccc(OCCC(=O)OCC(=O)NCc2ccco2)cc1
    i, 3.8%, 0.61
- O=C(O)C(=O)/C(=C\c1ccccc1)c1ccc2ccccc2n1
    i, -1.4%, .
- COc1ccc(C(C)C)cc1S(=O)(=O)Nc1ccc(Cl)cn1
    i, -0.6%, 0.1
- CC(C)C12CN3CC(C(C)C)(CN(C1)C3c1ccccc1)C2O (stereo not given)
    i, 2.9%, 0.14
- O=C(OCC(=O)N1CCCCC1)c1c[nH]c(=O)[nH]c1=O
    i, -2.8%, 0.15
- O=C(COCc1nc2ccccc2c(=O)[nH]1)NCC1CCCCC1
    i, 0.7%, .
- C=C(C)c1cccc(C(C)(C)NC(=O)Nc2ncccn2)c1
    i, 8.5%, -0.82
- COC(=O)[C@H](C)NC(=O)Nc1ccc(C)c(C)c1
    i, -3.5%, -0.34
- c1ccc(C2=Nn3c(nnc3-c3n[nH]c4c3CCC4)SC2)cc1
    i, -5.1%, -0.7
- c1ccc2nc(-c3nc4ccccc4[nH]3)ccc2c1
    +, 2.6%, -0.7
- O=C(O)c1cc(/C=N\O)ccc1OCc1ccccc1
    i, 5.0%, -1.7
- CC(C)N(C(=O)CN(C#N)c1nc(N(C)C)nc(N(C)C)n1)c1ccccc1
    i, -3.1%, -0.08
- CC(C)c1cc(NCCN2CCOCC2)n2c(nc3ccccc32)c1C#N
    i, -3.3%, 0.67
- CCc1oc(C(=O)O)cc1CN(CC)CC
    i, -5.1%, 0.89

Carrying on.
Below each SMILES: MT1-MMP promoter, Hsc70, WNV NS2B-NS3 inh
- CCOC(=O)NC(=O)CSc1nnnn1-c1ccc(Cl)cc1
    i, 10%, 1.1
- Cn1c(NCCO)nc2c(c1=O)C1(CCCCC1)Cc1ccccc1-2
    i, 1.6%, 2.3
- COc1ccc(OC)c(C2C(C(C)=O)=C(O)C(=O)N2c2ccc(O)cc2)c1 (stereo not given)
    i, 2.9%, 2.9
- Clc1ccc(Cn2ncc3c(N4CCCCC4)ncnc32)cc1
    i, 0.9%, 0.05
- CCC(C)NC(=O)C(NS(=O)(=O)c1cccc2nsnc12)c1ccccc1 (stereo not given)
    i, -1.6%, -0.15
- Brc1c(CSc2nncn2-c2ccccc2)nc2sccn12
    i, 2.9%, -0.03
- CCn1nc(C)c(NC(=O)/C=C/c2ccc(OC)c(COc3ccc(Br)cc3)c2)c1C
    i, -0.6%, .
- Cc1c(C(=O)Nc2ccncc2)oc2ccccc12
    i, 2.1%, -1.5
- CCOc1ccccc1C1NC(=O)NC(C)=C1C(=O)OCc1ccco1 (stereo not given)
    i, 4.7%, -0.99
- CN1C(=O)N(C)C(NC(=O)Nc2ccccc2)C1NC(=O)Nc1ccccc1 (stereo not given)
    i, -0.7%, -0.31
- COc1ccc(Cn2nnnc2C(c2cccs2)N2CCSCC2)cc1 (stereo not given)
    i, -4.8%, -0.68
- COc1ccc(CN2CCN(C(=O)CC(C)C)CC2)c2ccccc12
    i, -0.4%, 0.86
- CCOC(=O)c1[nH]c(C)c(/C=N/O)c1C
    i, -0.3%, 0.44
- CC(NC(=O)OCc1ccccc1)C(=O)OCN1C(=O)c2ccccc2C1=O (stereo not given)
    i, -2.0%, -0.93
- O=C(O)CN1C(=O)SC(Nc2ccccc2C(=O)O)C1=O (stereo not given)
    i, -3.1%, .
- N#Cc1c(SCC(N)=O)nc2c(c1-c1ccc(O)cc1)CCCC2
    i, -2.6%, -0.87
- O=C(NCC1CCCO1)c1cccc(F)c1 (stereo not given)
    i, -1.7%, .
- CC(C)CC(=O)Nc1ccc(-c2cn3ccsc3n2)cc1
    i, 3.0%, -0.88
- O=C(CSc1nc2ccccc2n1CC(=O)N1CCOCC1)N1CCCC1
    i, 2.5%, .
- CC(CN1CCCC1)OC(=O)COc1ccccc1 (stereo not given)
    i, -7.7%, -0.53
- COc1ccc(/C(O)=C2/C(=O)C(=O)N(CCCN(C)C)C2c2ccccc2)cc1Cl (stereo not given)
    i, 4.4%, -0.8
- C=CCn1c(SCC(=O)N2CC(=O)Nc3ccccc32)nc2scc(-c3ccccc3)c2c1=O
    i, -13%, .
- CCOc1cccc(C(=O)N(Cc2ccc(F)cc2)C2CCS(=O)(=O)C2)c1 (stereo not given)
    i, -0.6%, -0.43
- COc1ccc(NC(=O)Nc2ccc(OC)cc2)cc1
    i, -2.8%, .
- COc1cc(NC(=O)c2cc3ccccc3o2)c(OC)cc1Cl
    i, -4.2%, 0.03
- COc1ccc(NC(=O)CN2CCN(CC(=O)Nc3ccc4c(c3)OCO4)CC2)cc1
    i, 4.8%, 0.04
- O=C(Nc1ccc(N2CCCCC2)cc1)c1ccccc1
    3.6µM*, -0.6%, 1
- O=C(Nc1ccc(N2CCCC2)cc1)c1ccc(Br)o1
    i, -2.7%, -1.3
- COc1ccc(S(=O)(=O)N2CCN(C(=O)[C@@H]3CCC(=O)N3C3OC(=O)c4ccccc43)CC2)cc1 (stereo not given in full)
    i, 0.1%, -0.4
- COc1ccccc1OCc1nnc(SCC(=O)NCc2ccco2)n1Cc1ccco1
    i, 3.8%, -0.56

Filtered by structure, the entries above containing a CF3 group.
Below each SMILES: MT1-MMP promoter, Hsc70, WNV NS2B-NS3 inh
- O=C(Cn1nc(C(F)(F)F)c2c1CCC2)Nc1ccccc1C(F)(F)F
    i, 2.3%, .
- Cn1c(=O)c(=O)n(C)c2cc(S(=O)(=O)Nc3ccc(OC(F)(F)F)cc3)ccc21
    i, 5.3%, .

Three compounds already listed, sorted by molar mass, lowest first.
Below each SMILES: MT1-MMP promoter, Hsc70, WNV NS2B-NS3 inh
- CC(C)CC(=O)Nc1ccc(-c2cn3ccsc3n2)cc1
    i, 3.0%, -0.88
- C=CCn1c(SCC(=O)N2CC(=O)Nc3ccccc32)nc2scc(-c3ccccc3)c2c1=O
    i, -13%, .
- COc1ccc(S(=O)(=O)N2CCN(C(=O)[C@@H]3CCC(=O)N3C3OC(=O)c4ccccc43)CC2)cc1 (stereo not given in full)
    i, 0.1%, -0.4

Additional entries.
Below each SMILES: MT1-MMP promoter, Hsc70, WNV NS2B-NS3 inh
- COc1ccc(CC(NC(C)=O)C(=O)NC2CCN(c3c4c(nc5ncnn35)CCC4)CC2)cc1 (stereo not given)
    i, -1.1%, -0.87
- Cc1[nH]c2ccccc2c1C(=O)CNc1nccs1
    i, 4.1%, .
- Cc1nc(NC(=O)c2cc(-n3cnnc3)ccc2Cl)ccc1Br
    i, -2.8%, .
- c1cc2c(cc1Nc1nc(-c3ccc4c(c3)OCO4)cs1)OCCO2
    i, -8.1%, 0.31
- CS(=O)(=O)N(C(=O)NC(=O)NC1CCS(=O)(=O)C1)C1CCCCC1 (stereo not given)
    i, 0.4%, -0.08
- O=S(=O)(NCc1ccc2c(c1)OCO2)c1cccc(S(=O)(=O)N2CCOCC2)c1
    i, -1.9%, 0.43
- CCCC(c1nnnn1C1CCCCC1)N1CCN(C2CCCC2)CC1 (stereo not given)
    i, -4.5%, 1.4
- NC(=O)c1cc(Cl)cn(-c2ccccc2)c1=O
    i, 3.5%, -1
- O=C1CCCN1CC(CN1CCOCC1)Sc1nnnn1-c1ccccc1 (stereo not given)
    i, 1.2%, 0.61
- CCCCN(CC)C(=O)Cc1c(C(=O)O)[nH]c2ccc(Cl)cc12
    i, 5.5%, -0.22
- Cc1ccc(C)c(S(=O)(=O)Nc2ccc(S(=O)(=O)Nc3onc(C)c3C)cc2)c1
    i, -3.4%, -0.87
- Cc1cccc(-c2nc(CSCC(=O)N3CCN(c4ccccn4)CC3)c(C)o2)c1
    i, 0.5%, 1.6
- COC(=O)CCN(C(=O)C1C2CC3CC(C2)CC1C3)c1ccccn1 (stereo not given)
    i, -1.6%, 1.2

An unsorted share of the library. About 0.8% of those tested had a hit in this group.
